KCNQ2 enhance: KCNQ2 (rat) channel potentiation | AID 2239 | B-score at 10 µM | 0.54% of 310,000 active | O88943 | CHO-K1 KCNQ2, FluxOR thallium flux fluorescence; active compounds read high;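 active = fluorescence ratio B-score at least 3 SD of library B-scores, with initial fluorescence B-score within 3 SD, cut at about 5.3 in these data; same plate scores as AID 2156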;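 also: B-score of peak minus minimum over baseline fluorescence ratio after K+ and Tl+ stimulus; positive B-score means potentiation of KCNQ2 with more thallium influx and brighter signal; only the inactives scoring about 0 or higher are listed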
Target sequence (O88943 whole entry, looked up): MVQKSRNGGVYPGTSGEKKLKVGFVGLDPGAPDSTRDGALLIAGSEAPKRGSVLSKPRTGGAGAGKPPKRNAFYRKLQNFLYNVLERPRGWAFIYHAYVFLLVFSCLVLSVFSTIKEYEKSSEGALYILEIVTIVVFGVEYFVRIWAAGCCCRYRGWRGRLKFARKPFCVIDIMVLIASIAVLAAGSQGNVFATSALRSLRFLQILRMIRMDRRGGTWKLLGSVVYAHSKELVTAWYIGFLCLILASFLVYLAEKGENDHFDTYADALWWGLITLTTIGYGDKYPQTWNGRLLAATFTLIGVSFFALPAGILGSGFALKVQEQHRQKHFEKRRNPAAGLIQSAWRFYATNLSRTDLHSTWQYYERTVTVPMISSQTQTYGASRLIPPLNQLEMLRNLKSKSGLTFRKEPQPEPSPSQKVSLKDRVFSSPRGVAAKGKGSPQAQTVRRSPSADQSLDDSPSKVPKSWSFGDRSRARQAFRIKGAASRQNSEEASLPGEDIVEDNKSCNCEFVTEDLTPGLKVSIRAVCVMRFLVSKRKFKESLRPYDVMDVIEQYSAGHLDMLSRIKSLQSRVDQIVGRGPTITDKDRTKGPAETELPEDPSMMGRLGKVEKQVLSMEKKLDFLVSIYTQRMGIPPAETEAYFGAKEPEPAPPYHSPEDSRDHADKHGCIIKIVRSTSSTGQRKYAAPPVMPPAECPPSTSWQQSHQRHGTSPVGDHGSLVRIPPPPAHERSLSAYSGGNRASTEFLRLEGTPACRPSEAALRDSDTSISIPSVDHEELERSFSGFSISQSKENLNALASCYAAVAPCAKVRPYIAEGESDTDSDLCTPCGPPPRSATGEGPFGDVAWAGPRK
KCNQ2 enhance baseline: further read-out of KCNQ2 enhance, marked with its call; B-score; compound at 10 µM; measured here: initial fluorescence intensity artifact check;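 brightness before thallium and not channel activity; 0 = typical well and far values either way flag optical interference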
* = called active by the depositor. Only part of the results is shown (hit frequency here may not be typical).

SMILES	KCNQ2 enhance	KCNQ2 enhance baseline
CCOC(=O)N1CCN(C(=S)Nc2cc(OC)c(OC)cc2C(=O)OC)CC1	0.33	-0.02
CCOC(=O)Cc1csc(NC(=O)CN2CCN(c3ccccc3)CC2)n1	0.59	-0.81
Cc1cc(CN(C)C(=O)c2ccc(OC3CCN(CCc4ccccc4)CC3)cc2)on1	0.78	-0.04
O=C(NC1CCCCC1)C(c1ccncc1)N(Cc1ccccc1)C(=O)c1ccc(-c2ccccc2)[nH]1 (stereo not given)	0.57	-0.98
c1cncc(CNc2nc(N3CCOCC3)nc(N3CCOCC3)n2)c1	0.74	-0.44
CC1Sc2ccc(S(=O)(=O)CCC(=O)NCc3ccccc3Cl)cc2NC1=O (stereo not given)	1.6	-0.43
CCOC(=O)c1ccc[n+](CC(=O)c2ccccc2)c1	0.67	-0.25
COc1cccc(CNC(=O)c2ccc3nc[nH]c3c2)c1	0.76	0.11
CCn1c(SCC(=O)Nc2cccnc2Cl)nnc1-c1ccccc1	1.3	-0.46
S=c1[nH]nc(-c2cc(-c3ccco3)[nH]n2)n1-c1cccc2ccccc12	0.98	-1.4
CCOC(=O)c1ccc(CNC(=O)Cn2nnc(-c3ccccc3F)n2)o1	1.3	-1.6
CSCC[C@@H](Nc1nc(-c2ccccc2)nc2c1oc1ccccc12)C(=O)O	0.9	0.01
OC(COc1ccc(Br)cc1)CN1CCOCC1 (stereo not given)	1.6	-2
CN1CCN(CC(=O)Nc2ccc(S(=O)(=O)N(C)C)cc2)CC1	0.35	0.14
CCN(CC)S(=O)(=O)c1ccc2c(c1)c(=O)c(C(=O)NCc1ccc3c(c1)OCO3)cn2C	1.3	-0.93
CC(=O)NC1(C(F)(F)F)C(=O)Nc2c1c(=O)[nH]c(=O)n2Cc1ccco1 (stereo not given)	0.22	-0.73
Cc1cc([N+](=O)[O-])c(N2CCC[C@@H]2C(=O)O)c([N+](=O)[O-])c1	0.42	-1.5
CC(C(=O)c1ccccc1)[n+]1cccc(C(N)=O)c1 (stereo not given)	2.9	-2.1
COc1ccccc1-n1cc2ccc([N+](=O)[O-])cc2n1	0.74	-0.48
O=c1cc(NCc2ccccc2)[nH]c(=O)[nH]1	0.53	0.61
CC(C)CN(C(=O)COC(=O)c1cccnc1Cl)c1c(N)n(Cc2ccccc2)c(=O)[nH]c1=O	0.2	3.8
Cc1csc(=O)n1CCC(=O)OCc1nnc(-c2ccccc2)o1	1.7	1.7
COc1cccc(NC(=O)C2C3C=CC4(O3)C2C(=O)N(C(C)C)C4C(=O)NC2CCCCC2C)c1 (stereo not given)	0.34	0.32
O=C1CN(C(=O)NCC(=O)N[C@@H](Cc2ccccc2)C(=O)O)c2ccccc2N1	2.6	-0.06
Cc1csc(=O)n1CCC(=O)OCC(=O)Nc1cc(Cl)ccc1[N+](=O)[O-]	0.8	-4.7
Cc1cc(=O)oc2cc(OC(C)C(=O)NCCCN3CCCC3=O)c(Cl)cc12 (stereo not given)	1.9	-0.17
Brc1ccc(-n2cccc2/C=N/n2cnnc2)cc1	0.08	-0.77
Cc1cc(C)nc(SCC(=O)Nc2ncccn2)n1	0.75	-0.1
CCOc1cccc(C(=O)NC(=S)Nc2cccnc2)c1	0.7	-0.72
C=CCn1c(=S)[nH]c2nc3c(cc2c1=O)COC(C)(C)C3	1.7	-0.02
C/C(=N\NC(N)=O)c1ccc(-n2ccnc2)cc1	1.1	-0.63
CCOc1ccc(NC(=O)CN(C)C(=O)CC(NC(=O)c2ccccc2)c2ccccc2)cc1OCC (stereo not given)	0.68	0.85
O=c1[nH]cnc2c1C(c1ccccc1[N+](=O)[O-])c1c(nc[nH]c1=O)O2	0.83	1.4
CCOC(=O)CC(=O)c1sc2c(c1N)c(=O)[nH]c(=O)n2-c1ccc(OC)cc1	0.82	0.32
CCOC(=O)C1=C(CS(=O)(=O)c2ccccc2)NC(=O)NC1c1cc(OC)c(O)c(OC)c1 (stereo not given)	0.86	-0.86
CCOC(=O)CSc1nc(=O)n2ccccc2n1	0.71	-1.1
COc1ccc(CCNC(=O)CC(c2ccccc2)c2cccc(C)c2O)cc1OC (stereo not given)	1.4	-0.34
COc1ccccc1OCC(=O)N(Cc1nc(-c2ccccc2)no1)C(C)C	0.76	-0.02
Cc1[nH]c(C)c(S(=O)(=O)NCCc2ccccc2)c1C(=O)N1CCCCC1	0.68	2.1
O=C1CC(c2ccncc2)c2cc3c(cc2N1)OCO3 (stereo not given)	0.13	0.48
C[C@@H]1CC[C@@]2(O[C@H](CCO)C[C@@H](O)[C@@H]2O)O1	0.28	-0.3
CC1CN(C(=O)/C=C/c2ccccc2[N+](=O)[O-])CC(C)O1 (stereo not given)	1.9	0
CN1c2ccccc2-c2nc3ccccc3n2C1c1cccs1 (stereo not given)	0.4	-0.75
Nc1nc(SCC(=O)N2CCCC2)[nH]c(=O)c1NC(=O)c1cccs1	2.4	-1.6
COc1ccc(CNC(=S)Nc2cccc(F)c2)cc1	0.28	0.13
O=S(=O)(Nc1ccc(Cl)c(C(F)(F)F)c1)c1cnc[nH]1	0.64	0.01
O=C1c2ccccc2-c2c1cccc2C(=O)N1CCN(C(=O)c2ccco2)CC1	0.11	0.17
Cc1cc(Cl)c(OCCCn2cncn2)c(Br)c1	1.4	-1.1
C=CCn1c(=N)n(CC(=O)c2cccc([N+](=O)[O-])c2)c2ccccc21	0.04	1.5
CCOC(=O)CN1C(=O)N[C@@H](c2ccco2)C(C(C)=O)=C1C	1.8	-1.4
O=C(Nc1cccc(C(F)(F)F)c1)c1cc[n+]([O-])cc1	0.12	0.53
O=C(CCc1nc2ccccc2[nH]1)NC1CCCCC1	0.07	0.28
C/C=C\C(=O)Nc1cccc(C2=NOC3(C2)C[C@@H](C(N)=O)N(C(=O)C2(C)CC2)C3)c1 (stereo not given in full)	0.24	0.79
CC(C)c1ccc(/C=N/Nc2ccc(C(=O)O)cc2)cc1	0.7	-0.6
Cc1csc2ncc(C(=O)NCc3ccccn3)c(=O)n12	0.18	0
Cc1[nH]nc(N2CCCCC2)c1[N+](=O)[O-]	0.02	-0.6
O=C(CNC(=O)C1CCCCC1)OCn1nnc2ccccc2c1=O	0.71	0.05
Cc1ccc2nsnc2c1NC(=O)CCc1ccccc1	1.4	1.7
CCCn1nc(NC(=O)c2cccs2)c2cc3cc(OC)ccc3nc21	2	0.62
CCOc1ccc(S(=O)(=O)N2CCC(C(=O)NC3CC3)CC2)cc1Cl	0.74	1.1

Rewritten with values under each structure: five of the compounds above.
Results follow in this order: KCNQ2 enhance | KCNQ2 enhance baseline
- CC(C)c1ccc(/C=N/Nc2ccc(C(=O)O)cc2)cc1
  0.7 | -0.6
- Cc1ccc2nsnc2c1NC(=O)CCc1ccccc1
  1.4 | 1.7
- CCCn1nc(NC(=O)c2cccs2)c2cc3cc(OC)ccc3nc21
  2 | 0.62
- CCOc1ccc(S(=O)(=O)N2CCC(C(=O)NC3CC3)CC2)cc1Cl
  0.74 | 1.1
- O=C(CNC(=O)C1CCCCC1)OCn1nnc2ccccc2c1=O
  0.71 | 0.05

(cont.)
SMILES	KCNQ2 enhance	KCNQ2 enhance baseline
O=C(NCc1cccs1)c1cnc(Cl)c(Cl)c1	0.02	2
COc1cc(/C=C(/NC(C)=O)C(=O)O)cc(Cl)c1OCc1ccc(Br)cc1	1.8	-0.54
C/C(Cl)=C\C[N+](C)(C)CC(=O)OCCc1ccccc1	0.95	0
O=C(c1ccc(Cl)cc1)c1ccc(OCC(O)CN2CCOCC2)cc1 (stereo not given)	0.25	-0.5
COC(=O)c1cccnc1-n1c(=O)c2cccnc2n(Cc2ccc(Cl)cc2)c1=O	0.99	-0.31
CC1(CC(=O)Nc2ccccc2)NC(=S)N(c2ccccc2)N1 (stereo not given)	0.62	0.87
O=C(NNC(=O)c1cc(-c2ccccc2Cl)nc2ccccc12)c1csc(N2CCOCC2)n1	0.71	0.09
COc1ccc(NC(=O)Cc2ccc(C)c(C)c2)cc1Cl	1.5	-0.85
CC1CC(C)(C)NC(=S)N1CC(=O)NCc1ccc(Cl)cc1 (stereo not given)	0.52	-0.53
COc1ccc(C2CC(c3ccc(Cl)cc3Cl)Nc3nc(N)nn32)cc1 (stereo not given)	0.06	-0.03
CC(=O)c1ccc(NC(=O)/C=C/c2ccc(C)cc2)cc1	1.4	-0.04
c1ccc(CN2CCN(CCCNc3ccc4nnc(-c5ccccc5)n4n3)CC2)cc1	0.22	0.18
CCCCNS(=O)(=O)c1cc2c3c(c1)CCN3C(=O)CC2	0.03	-1.3
COc1ccccc1CNC(=O)CCC1N=C2c3ccccc3N=C(SCC(=O)NCC3CCCO3)N2C1=O (stereo not given)	0.48	1.4
CNc1ccc(Oc2nc([N+](=O)[O-])nn2C)cc1	0.42	0.02
Cc1ccc(Cn2c(SCC(C)C)nc3c2c(=O)[nH]c(=O)n3C)cc1	0.09	1.3
CN(C)C(=O)CSCc1c(Cl)cccc1Cl	2.5	-0.55
CCCc1cc(=O)oc2c3c(cc(OCC(=O)N[C@@H](CSC)C(=O)O)c12)OC(C)(C)CC3	0.65	-0.06
O=C1C(=C(O)c2ccccc2)C(=O)c2ccccc21	0.53	0.56
CC(C)C(NC(=O)c1ccco1)C(=O)NCC(c1ccco1)N1CCCCC1 (stereo not given)	0.41	-0.53
CS(=O)(=O)N1N=C(c2cccs2)CC1c1ccccc1 (stereo not given)	0.03	0.94
CCCOc1ccc(C2C(C(=O)/C=C/c3ccco3)=C(O)C(=O)N2CCN2CCOCC2)cc1OC (stereo not given)	0.47	-0.01
O=C(Nc1ccc(F)cc1)Nc1nnc(Cc2ccccc2F)s1	0.84	1.6
O=S(=O)(/N=C(/c1ccccc1Cl)N1CCOCC1)c1ccccc1	0.54	0.84
COC(=O)c1[nH]c2cc(OC)ccc2c1NC(=O)CN1CCN(c2cccc(C)c2)C(C)C1 (stereo not given)	1.1	-0.98
O=C1CCC(C(=O)Nc2cccc3ccccc23)N1 (stereo not given)	0.42	0.17
Cc1ccc(C(=O)N2CC3(C(C)C)CN(C(=O)c4ccc(C)cc4)CC(C(C)C)(C2)C3=O)cc1	0.69	-1.6
O=C(COC(=O)c1ccc(S(=O)(=O)N2CCCC2)cc1)NCc1ccc(F)cc1	0.61	0.13
CCN(CC)c1ccc(NC(=O)CCCCCN2C(=O)c3ccccc3C2=O)cc1	2.5	0.56
O=C(O)C[C@@H](O)C(=O)O	1.1	-1.3
Cc1cc([N+](=O)[O-])nn1CC(=O)N1N=C(C(F)F)CC1(O)C(F)F (stereo not given)	0.91	1.6
CCOC(=O)CC(=O)Nc1nc2ccccc2s1	0.42	0.2
CC(C)C(=O)NCCSc1c[nH]c2ccccc12	0.95	0
CC(CCCC(C)(C)O)NCc1cn[nH]c1-c1ccc2c(c1)OCO2 (stereo not given)	0.03	-0.33
Cc1cccc(Cl)c1NC(=S)N1CCN(c2ccc([N+](=O)[O-])cn2)CC1	0.62	-0.71
O=C(CSc1nc2ncc(Br)cc2[nH]1)Nc1ccc2c(c1)OCO2	0.37	-0.76
O=C(O)C1=C[C@@H](c2ccc(Br)cc2)C[C@@H](OCc2ccc(CO)cc2)O1	0.37	-0.12
O=C(CCn1cccc1)Nc1ccc(F)cc1	1.1	-0.72
CCCCCCOC(=O)C1=C(C)NC(=O)NC1c1ccc(O)cc1 (stereo not given)	0.07	0.51
O=C(OCC(=O)N1CCCCC1)c1cc2ccccc2cc1O	0.46	-0.75
Cc1ccc(Cn2c(=O)c3c(nc4n3CCN4Cc3ccco3)n(C)c2=O)cc1	1.8	0.55
O=C(NC1CCCC1)C1CCCN(S(=O)(=O)c2cccc3cccnc23)C1 (stereo not given)	2	0.03
O=C(CSc1nc(-c2ccco2)cc(C(F)(F)F)n1)NC1CCCC1	1.4	0.18
N#Cc1ccc(-n2nnc3ccccc3c2=O)c([N+](=O)[O-])c1	0.29	1.8
O=C(NCCc1ccc(Cl)cc1Cl)c1cccnc1	2.2	-0.68
CS(=O)(=O)N1CCC(Oc2ccccc2C(=O)N2CCNC(=O)C2)CC1	0.77	-1.6
COc1ccc(S(=O)(=O)n2oc(=O)cc2-c2ccccc2)cc1OC	0.09	-0.62
Cc1ccc(/C=C2\CCC(C3CCCC3)C2=O)cc1 (stereo not given)	0.44	-0.3

Complete entries, looked up by structure. Order of values: KCNQ2 enhance | KCNQ2 enhance baseline
Entry for `O=C(CSc1nc(-c2ccco2)cc(C(F)(F)F)n1)NC1CCCC1` → 1.4 | 0.18
Entry for `O=C(NCCc1ccc(Cl)cc1Cl)c1cccnc1` → 2.2 | -0.68
Entry for `O=C(CCn1cccc1)Nc1ccc(F)cc1` → 1.1 | -0.72
Entry for `CS(=O)(=O)N1CCC(Oc2ccccc2C(=O)N2CCNC(=O)C2)CC1` → 0.77 | -1.6
Entry for `O=C(O)C1=C[C@@H](c2ccc(Br)cc2)C[C@@H](OCc2ccc(CO)cc2)O1` → 0.37 | -0.12

The listing continues:
SMILES	KCNQ2 enhance	KCNQ2 enhance baseline
O=C(NCc1ccco1)c1cc2n(n1)C(C(F)(F)F)CC(c1ccc(F)cc1)N2 (stereo not given)	0.01	-0.4
CCOc1cc(CNc2ccccc2)cc(Br)c1OCc1ccc(F)cc1	1.9	-0.92
CC(C)CC(OC(=O)c1ccc(Cl)nc1)C(=O)NC1CCCC1 (stereo not given)	1.6	0.96
Cn1c(=O)n(C)c2cc(S(=O)(=O)NCCc3ccccc3)ccc21	0.58	0.19
CCOC(=O)c1ccccc1NC(=O)C1CC(=O)N(C2CCCCC2)C1 (stereo not given)	0.72	-1.5

Source: PubChem BioAssay (Johns Hopkins Ion Channel Center)
